Assay outcomes from PubChem.
VCAM-1 rise: enhancers of VCAM-1 display on endothelial cells, cell-based, plate reader, pooled HUVEC, TNFa stimulus (AID 455); HUVEC TNFa-induced VCAM-1 immunofluorescence, plate reader; numbers were filed only for top-ranked candidate wells; augmentation, % at 5 µM; 10,000 tested, 0.2% active;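 active = a compound raising TNF-alpha-driven VCAM-1 surface staining, with its hit status upheld on visual or statistical review; inactive = the rest, including hits rejected on review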;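 also: 0% = TNFa with vehicle and 100% = strongest image-checked hit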
Proteasome disasm: blocks ATP-dependent breakdown of the yeast 26S proteasome; anti-FLAG beads, GFP-proteasome disassembly, flow cytometry; inhibition of disassembly, % (test concentration not listed); 24,000 tested, 0.2% active; AID 751;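 active = above 40%; inconclusive = likely self-fluorescent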;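 also: plate controls were ATP control with full disassembly for no effect and ATP-gamma-S intact proteasomes for full effect; higher percent means more bead fluorescence retained so stronger block of disassembly; stock transfer was 100 nL into about 10 µL; wells with too few beads may also be inconclusive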
Numbers without * were called inactive; i = inactive; ? = inconclusive; / = no result given. These rows are one share of the data (hit frequency here may not be typical).

VCAM-1 rise	Proteasome disasm	smiles
/	1.9	Cn1c2ccccc2c2cnn(CC(=O)O)c(=O)c21
/	-0.9	O=C(Nc1ccccc1)c1cnc[nH]1
/	0.6	CC(C)C(NC(=O)C1CCCCC1)C(=O)Nc1ccncc1 (stereo not given)
/	-1.1	O=C(CCCN1C(=O)C2C3C=CC(C3)C2C1=O)N1CCN(c2ccccc2)CC1 (stereo not given)
/	10	CCOC(=O)N1CCC(NC(=O)C2CCCN(Cc3nc(-c4cccc(Cl)c4)oc3C)C2)CC1 (stereo not given)
/	0.0	O=C1CC2CS(=O)(=O)CC2N1c1ccc(Cl)cc1Cl (stereo not given)
i	-1.2	COC(=O)[C@@H](N)Cc1ccc(O)cc1
/	0.6	CC(C)(C)NC(=O)C1CCCN(S(=O)(=O)c2cccc3cccnc23)C1 (stereo not given)
i	0.3	CCN(CC)c1ccc(NC(=O)CN2CCN(CC(=O)Nc3ccccc3F)CC2)cc1
/	-0.7	Cc1ccc(C2CC(C(F)(F)F)n3nc(C(=O)NCCN4CCOCC4)cc3N2)cc1 (stereo not given)
/	0.2	CCOc1ccc(-c2nc(CSCC(=O)NCc3ccco3)c(C)o2)cc1
/	-1.3	COc1ccc(C2/C(=C(/O)c3ccccc3)C(=O)C(=O)N2CO)cc1 (stereo not given)
i	0.0	COc1cccc(-n2ccnc2SCC(=O)N2CCc3ccccc32)c1
/	-0.4	O=C(CSCCc1ccccn1)Nc1cccnc1
/	-2.1	COc1ccc2cc(CCNC(=O)C3CC3)c(=O)[nH]c2c1
/	-0.2	COc1ccc(NC(=O)C2CCCN(S(=O)(=O)c3cccc4cccnc34)C2)c(OC)c1 (stereo not given)
/	2.4	O=C(Nc1ccc(Cl)c(Cl)c1)N(Cc1cccnc1)Cc1ccco1
/	0.1	CC1CCCN(CCC(=O)c2ccc(Br)cc2)C1 (stereo not given)
/	1.4	COc1ccccc1NC(=O)CCNC(=O)Cn1ccc2ccccc2c1=O
i	1.4	O=c1cc(CSc2ccccn2)c2ccccc2[nH]1

Next section:
VCAM-1 rise	Proteasome disasm	smiles
/	0.0	Cc1cc(N(CN2CCCC2=O)C(=O)c2ccccc2)no1
/	-0.9	O=C(NCc1cccnc1)NC1(c2ccccc2)CC1
/	-0.3	COC(=O)Nc1cc(C)nc2ccccc12
/	0.2	CC(=O)N1CCN=C1SCc1ccc(Cl)cc1
i	-3.2	Cn1c(=O)c2c(nc(NCCNC(=O)c3ccco3)n2Cc2ccccc2Cl)n(C)c1=O
/	0.6	COc1ccc(N2C(=O)NC3CC2(C)Oc2ccc(Br)cc23)cc1OC (stereo not given)
i	0.6	O=C1COc2ccc(C(=O)COC(=O)CCc3ccc(S(=O)(=O)N4CCOCC4)cc3)cc2N1
i	-0.9	FC(F)(F)c1cc(-c2ccccc2)nc(N2CCCCC2)n1
i	0.2	O=C(CCCN1CC=C(n2c(=O)[nH]c3ccccc32)CC1)c1ccc(F)cc1
/	0.7	O=C(NC(Cc1c[nH]c2ccccc12)C(=O)O)c1ccccc1 (stereo not given)
/	-2.3	N=c1c[n+](-c2ccc(Cl)cc2)[n-]o1
i	3.0	Cc1ccc2cc3cc(C(=O)N4CC(C)CC(C)C4)oc3nc2c1 (stereo not given)
/	-0.6	CCOC(=O)CCN(Cc1cccs1)S(=O)(=O)c1ccc(Cl)cc1
/	0.0	COCCNC(=O)Cn1cnc2ccc(S(=O)(=O)N3CCC(C)CC3)cc2c1=O
i	0.8	O=C(CN1CCN(c2nc(-c3ccc(Cl)cc3)cs2)CC1)NCc1ccco1
/	-0.9	COc1ccc(NC(=O)C2CC(c3ccc(OC)c(OC)c3)=NO2)cc1OC (stereo not given)
i	0.6	COc1ccc(S(=O)(=O)N2CCN(S(=O)(=O)c3ccc4c(c3)OCCO4)CC2)cc1C
/	-0.6	CC1=C(C(=O)Nc2ccccc2)C(c2ccncc2)n2nnnc2N1 (stereo not given)
i	-0.4	CCCCOc1ccc(-c2nnn(CC(=O)Nc3ncc(CC(=O)OCC)s3)n2)cc1
/	-2.3	Cc1ccc(OC(=O)c2ccc(C)c(C)c2)cn1

Profiles as entered above. Order of screens: VCAM-1 rise, Proteasome disasm
`CCCCOc1ccc(-c2nnn(CC(=O)Nc3ncc(CC(=O)OCC)s3)n2)cc1` across the screens: i, -0.4
`Cc1cc(N(CN2CCCC2=O)C(=O)c2ccccc2)no1` across the screens: /, 0.0
`O=C(NC(Cc1c[nH]c2ccccc12)C(=O)O)c1ccccc1` (stereo not given) across the screens: /, 0.7
`COc1ccc(N2C(=O)NC3CC2(C)Oc2ccc(Br)cc23)cc1OC` (stereo not given) across the screens: /, 0.6

Continuation.
VCAM-1 rise	Proteasome disasm	smiles
/	-1.1	CCN(CCNC(=O)C1CCCN(S(=O)(=O)c2cnc[nH]2)C1)c1ccccc1 (stereo not given)
/	-0.4	O=C(O)c1c2c(nc3ccc(S(=O)(=O)N4CCC(C(=O)NC5CCCC5)CC4)cc13)CCCCC2
i	0.9	C(/CCc1ccccc1)=N\n1cnnc1
i	0.7	CC1CCCN(C(=O)c2cc(F)c(F)cc2Cl)C1 (stereo not given)
/	-1.4	CCCCN(CC)CCNC(=O)Cn1cnc2sc(C)c(S(=O)(=O)N3CCOCC3)c2c1=O
/	2.5	COc1ccc(C(=O)N(Cc2nc(-c3ccc(C)cc3)no2)C(C)C)cc1OC
/	1.7	Cc1cc(C)c2c(-n3cccc3)c(C(=O)O)sc2n1
/	4.0	Cc1ccc2c(c1)NC(=O)C(CC(=O)NCCCN1CCCC1)O2 (stereo not given)
i	-2.1	Cc1cc(C(F)(F)F)c2c(C)nn(CCc3nn[nH]n3)c2n1
/	-1.0	COc1ccc(S(=O)(=O)Cc2ccc(C(=O)NC3CC3)o2)cc1
/	0.1	CCOC(=O)N1CCC(NC(=O)CN2C(=O)CSc3ncccc32)CC1
i	-1.1	CCCc1cc(C(N)=O)c(NC(=O)c2ccco2)s1
/	0.1	CC1CCCCN1C(=O)Cn1c(=O)n(C2CCCCC2)c(=O)c2ccccc21 (stereo not given)
/	-0.4	Cc1cc(NC(=O)c2cc(C(C)C)on2)no1
/	-0.2	COc1c(C)cc(Br)cc1C(=O)Nc1cccc(-c2nc3ncccc3o2)c1
i	0.4	CCc1nn2c(=O)cc(CSc3nc4sc5c(c4c(=O)n3C)CCCC5)nc2s1
/	13	O=C(NCCCN1CCCCCC1)C1CC(=O)N(CCc2ccccc2)C1 (stereo not given)
/	-0.3	COc1cccc(C2=NOC(C(=O)Nc3cccc(C(C)=O)c3)C2)c1OC (stereo not given)
i	-0.8	COCCn1nnnc1SCC(=O)N1CCCCC1
i	-0.3	C=CCSc1nc2sc(C)c(C)c2c(=O)[nH]1

Additional results:
VCAM-1 rise	Proteasome disasm	smiles
/	-1.0	CSc1nsc(SC)c1C(=O)OCC(F)(F)F
/	-0.7	Cc1ccccc1S(=O)(=O)Cc1ccc(C(=O)N2CCN(c3ccc(F)cc3)CC2)o1
i	1.6	CCOC(=O)c1sc(NS(=O)(=O)c2ccc(NC(C)=O)cc2)nc1C
i	-1.3	O=C(c1ncc[nH]1)c1ccccc1C(=O)N1CCOCC1
i	0.0	CCOCCCNC(=O)Cn1ncc2c(=O)oc3ccccc3c21
i	2.5	COc1ccc(OC)c(NC(=O)CSc2nnc(Cc3cccn3C)n2-c2ccc(F)cc2)c1
i	-0.1	CCc1oc2ccccc2c1C(=O)c1cc(Br)c(O)c(Br)c1
/	2.2	COc1ccc(S(=O)(=O)N2CCN(CC(=O)Nc3cc(OC)cc(OC)c3)CC2)cc1
/	1.4	COc1cccc(OCC(O)CN2CCC(C)CC2)c1 (stereo not given)
i	-2.1	CN(C)CCN1C(=O)c2oc3ccc(Cl)cc3c(=O)c2C1c1cccc(Br)c1 (stereo not given)
/	0.0	O=C(NCCCn1ccnc1)c1cc(-c2cccs2)on1
/	-0.7	CN(CP(=O)(O)CN(C)S(C)(=O)=O)S(C)(=O)=O
i	0.8	CCOC(=O)CSc1nnc(-c2ccc(S(=O)(=O)N3CCOCC3)cc2)n1-c1ccccc1
/	0.1	CCN(CC)CCCNC(=O)c1cc2c(-c3ccc(Cl)cc3)nn(C)c2s1
/	0.8	Clc1ccc(C2CC(c3ccccc3)Nc3ncnn32)cc1 (stereo not given)
/	-2.3	CCOC(=O)c1cc(C)[nH]c(=S)c1C#N
i	12	Cc1ccccc1-c1nc(CN2CCC(C(=O)N3CCC(C(N)=O)CC3)CC2)c(C)o1
i	1.9	O=C(c1cc(S(=O)(=O)N2CCOCC2)ccc1F)N1CCCc2ccccc21
i	1.1	O=C(CCNC(=O)c1ccc(Br)o1)NC1CCCC1
i	-0.9	CCCn1cc(SCC(N)=O)c2ccccc21

(cont.)
VCAM-1 rise	Proteasome disasm	smiles
/	8.2	Cc1ccc(-c2nc(CS(=O)CC(=O)NCc3ccccc3)c(C)o2)cc1 (stereo not given)
i	-0.7	CC(C)(C)NC(=O)Cn1nnnc1-c1nonc1N
/	3.1	CCOc1ccccc1Nc1ccc(C(=O)O)cc1NC(C)=O
/	-1.5	Cc1nn(-c2ccccc2)c(C)c1NC(=O)Cc1cccs1
/	1.7	CC(=O)Nc1ccc(S(=O)(=O)N2CCN(c3cc(C)ccc3C)CC2)cc1
/	-1.1	O=C(CCn1c(=O)c2ccccc2n(Cc2cc(=O)n3ccccc3n2)c1=O)NCc1ccco1
/	0.5	COC(=O)c1c(N2C(=O)CCC2=O)sc2c1CCCC2
i	-0.5	C[C@H](NC(=O)NCc1cccs1)C(=O)O
i	3.5	N#CCc1c(C#N)c(N)nc(N2CCN(S(=O)(=O)c3ccccc3)CC2)c1C#N
/	1.0	COCCN1Cc2cccc(C(=O)Nc3cc(C)cc(C)c3)c2C1=O
i	0.6	CCc1cc(C(=O)OC)c(NC(=O)CCC(=O)O)s1
i	?	CC(NC(=O)c1ccco1)c1ccc2c(c1)OCCO2 (stereo not given)
/	0.3	O=C(CCCNS(=O)(=O)c1cccc2nsnc12)NCc1ccc(Cl)cc1
/	3.7	O=C1NC2=C(C(=O)c3ccccc32)C(c2ccccc2)N1 (stereo not given)
i	-1.8	NC(=O)C1(N2CCCCC2)CCN(C2CC(=O)N(Cc3cccs3)C2=O)CC1 (stereo not given)
i	-0.2	CC(C)(C)C(=O)CCN1C(=O)C2(OCCO2)c2ccccc21
i	0.6	O=C(CCn1nc(-c2ccccc2)ccc1=O)N1CCCC1
/	1.1	CC1CCN(c2c(NCc3ccc(C(=O)NCC4COc5ccccc5O4)cc3)c(=O)c2=O)CC1 (stereo not given)
i	0.6	COc1cccc(-n2c(SCC(=O)Nc3cc(C)on3)nc3c([nH]c4ccccc43)c2=O)c1
i	-1.0	CCC(NS(=O)(=O)c1ccc(C)cc1)C(=O)N1CCC2(O)CCCCC2C1 (stereo not given)

Continuation.
VCAM-1 rise	Proteasome disasm	smiles
/	-1.7	O=C(O)CCCn1nc(-c2ccccc2)c2ccccc21
/	0.6	CC(=O)c1ccc(N2CCN(C(=O)c3cc4c(-c5ccccc5F)nn(C)c4s3)CC2)cc1
/	-1.0	Cc1ccc2oc(=O)c3cnn(CC(=O)N4CCCCCC4)c3c2c1
/	2.1	CCOC(=O)N1CCN(C(=O)c2cn(CC)c3ccc(S(=O)(=O)N4CCCC4)cc3c2=O)CC1
/	-1.5	COc1cccc(-c2cc(C(F)(F)F)nc(N3CCN(c4ccccc4)CC3)n2)c1
i	0.0	CCCCOC(=O)c1cccc(NC(=O)CC)c1
i	7.5	O=C(CSc1nnc(-c2ccco2)n1CC1CCCO1)N1CCCCC1 (stereo not given)
i	0.6	Cc1c(NC(=O)c2noc3c2CCc2ccccc2-3)c(=O)n(-c2ccccc2)n1C
/	-0.5	Cc1ccccc1Cn1cc(S(=O)(=O)CC(=O)N2CCCCC2)c2ccccc21
i	0.5	CC1(C)CC(=O)CC(=Nc2ccc(C(=O)O)cc2)C1
i	-0.3	CCc1nnc2c3cnn(-c4ccccc4)c3ncn12
/	-1.3	CCOC(=O)N1CCN(C(=O)c2cn(C)c(=O)c3c2c2ccccc2n3C)CC1
/	2.5	COc1ccc(C(=O)N2CCN(c3c(C)cccc3C)CC2)cc1OC
i	12	Cc1cc(C)c2c(=O)[nH]c(=O)n(Cc3ccccc3)c2n1
/	-1.1	O=C(NCC1CCCO1)c1ccc2nc(N3CCCCC3)sc2c1 (stereo not given)
i	0.1	COc1ccc(-n2nnnc2SCC(=O)c2ccc(O)c(O)c2)cc1
i	13	Cc1ccc(-c2noc(CCC(=O)NCC3CCN(Cc4cccc(C)c4)CC3)n2)cc1
/	-0.4	CCOC(=O)c1c(C)n(C)c2ccc(OCC(O)CN3CCCCCC3)cc12 (stereo not given)
i	0.2	CN(C)C(CNC(=O)Nc1cccc(Cl)c1)c1cccnc1 (stereo not given)
i	0.1	Cc1nc2cc(Cl)ccc2n1CCO
/	-0.8	Cc1c(C(=O)O)sc2nc(C)n(C)c(=O)c12
/	-0.8	COC(=O)c1ccc(C2c3c(n[nH]c3C)C(=O)N2c2ccc(C)cc2)cc1 (stereo not given)
i	-0.4	O=C(c1ccco1)N1CCN(/C(=N/S(=O)(=O)c2cccs2)c2ccccc2Cl)CC1

7 structures from above, ordered by heavy-atom count, lowest first.
VCAM-1 rise	Proteasome disasm	smiles
i	0.5	CC1(C)CC(=O)CC(=Nc2ccc(C(=O)O)cc2)C1
/	2.5	COc1ccc(C(=O)N2CCN(c3c(C)cccc3C)CC2)cc1OC
/	-0.5	Cc1ccccc1Cn1cc(S(=O)(=O)CC(=O)N2CCCCC2)c2ccccc21
/	-1.5	COc1cccc(-c2cc(C(F)(F)F)nc(N3CCN(c4ccccc4)CC3)n2)c1
i	13	Cc1ccc(-c2noc(CCC(=O)NCC3CCN(Cc4cccc(C)c4)CC3)n2)cc1
/	0.6	CC(=O)c1ccc(N2CCN(C(=O)c3cc4c(-c5ccccc5F)nn(C)c4s3)CC2)cc1
/	2.1	CCOC(=O)N1CCN(C(=O)c2cn(CC)c3ccc(S(=O)(=O)N4CCCC4)cc3c2=O)CC1
